# Screening results deposited in PubChem BioAssay by several laboratories.
# PABP FP inh: blocks human PABP binding to poly(A) RNA | P11940 | inhibition, % at 35 µM | hit rate 1% among 290,000 | fluorescence polarization;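 active = 50% or more with normal probe brightness, or confirmed in later tests; inconclusive = above 50% with abnormal brightness, or retests that disagree; inactive = below 50% or failed in later tests; about a fifth of its hits are not listed in these tables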;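 note: calls also rest on retests at 20 µM and on dose response follow-up; controls were probe without protein and protein plus probe with vehicle; some compounds called inactive have numbers as strong as hits; many hits fall short of the cut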
# Target sequence (P11940 whole entry, looked up): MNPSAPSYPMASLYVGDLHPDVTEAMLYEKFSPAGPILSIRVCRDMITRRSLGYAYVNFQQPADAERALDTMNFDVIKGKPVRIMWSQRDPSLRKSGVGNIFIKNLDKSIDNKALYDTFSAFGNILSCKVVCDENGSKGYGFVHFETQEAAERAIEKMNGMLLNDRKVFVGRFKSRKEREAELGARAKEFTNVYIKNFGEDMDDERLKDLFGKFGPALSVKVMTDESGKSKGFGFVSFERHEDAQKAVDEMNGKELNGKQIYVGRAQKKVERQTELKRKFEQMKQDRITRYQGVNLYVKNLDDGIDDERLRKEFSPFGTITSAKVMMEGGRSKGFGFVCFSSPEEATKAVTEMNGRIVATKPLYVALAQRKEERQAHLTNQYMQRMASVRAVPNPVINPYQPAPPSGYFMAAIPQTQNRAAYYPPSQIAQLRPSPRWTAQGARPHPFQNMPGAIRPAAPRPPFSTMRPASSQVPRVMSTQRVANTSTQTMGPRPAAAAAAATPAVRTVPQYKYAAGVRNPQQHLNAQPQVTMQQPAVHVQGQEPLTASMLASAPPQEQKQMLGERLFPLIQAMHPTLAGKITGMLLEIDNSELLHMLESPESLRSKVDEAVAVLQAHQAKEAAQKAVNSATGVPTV
# eIF4H inh: inhibitors of RNA binding by human eIF4H; eIF4H fluorescence polarization binding assay; inhibition, % at 35 µM; hit rate 0.94% among 290,000; AID 2012;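 active = 50% or more with normal probe brightness, or confirmed in later tests; inconclusive = above 50% with abnormal brightness, or retests that disagree; inactive = below 50% or failed in later tests; about a fifth of its hits are not listed in these tables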;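 note: calls also rest on retests at 20 µM and on dose response follow-up; 0% = protein and probe with vehicle and 100% = probe without protein; strong numbers were not always called active; many hits fall short of the cut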
# HIV Env fusion: inhibitors of HIV Env-mediated cell fusion; HeLa-JRFL Env/CEM21 cell fusion, luciferase; inhibition, % at 12.3 µM; hit rate 1.1% among 360,000;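 active = mean replicate inhibition score of at least 50 and every replicate individually at or above 50; inconclusive = only one of the two criteria met; inactive = mean below 50 and not all replicates reaching 50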;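 note: 0% = plate neutral controls and 100% = maraviroc near 300 nM; one replicate is shown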
# CSC inhib: blocks cancer stem cells; cancer stem cell-like cells viability, luminescence; inhibition, % at 7.5 µM; hit rate 1.1% among 300,000;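 active = mean at 75% or more and at least half the replicates too; inconclusive = mean and replicates disagree; tested in HMLE shEcad cells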;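 note: 0% = median of negative and 100% = median of positive control wells; the first replicate is given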
# UUG fidelity: alters start codon recognition fidelity in yeast | S. cerevisiae UUG-firefly luciferase reporter, luminescence/redox ratio | activity score, % at 18.7 µM | hit rate 0.13% among 350,000 | AID 602363;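 active = replicate mean at a twofold rise or more, about +100% in these data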;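 note: firefly luciferase made from a UUG start codon reports start codon fidelity; reporter light over untreated wells divided by growth signal over untreated wells; some hits fall short of that in this replicate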
# Rce1 inh: yeast Ras-converting enzyme inhibition; yeast membranes, quenched prenylated peptide cleavage fluorescence; hit rate 0.27% among 290,000; AID 2563; calls only; Q03530;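 active = fall in fluorescence gain of 50% or more versus controls, with final raw signal at or below 3038400; inconclusive = same 50% fall but final raw signal above 3038400; inactive = fall in fluorescence gain under 50%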;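 note: plate controls were neutral control wells for no effect and wells lacking membranes for full effect; tested at 10 µM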
# Target sequence (Q03530 whole entry, looked up): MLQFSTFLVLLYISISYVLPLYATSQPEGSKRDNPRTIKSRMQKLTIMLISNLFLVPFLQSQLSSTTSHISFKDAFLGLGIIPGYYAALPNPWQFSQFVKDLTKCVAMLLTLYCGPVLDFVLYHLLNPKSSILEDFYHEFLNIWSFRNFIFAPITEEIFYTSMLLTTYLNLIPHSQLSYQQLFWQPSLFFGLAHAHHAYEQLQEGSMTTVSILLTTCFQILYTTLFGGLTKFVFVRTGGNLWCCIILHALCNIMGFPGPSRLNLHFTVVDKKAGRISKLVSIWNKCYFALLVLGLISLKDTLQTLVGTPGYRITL
# MT1-MMP act inh: blocks activation of human MT1-MMP | HT1080 RFP-PRO-GFP cells, GFP/RFP ratio fluorescence, overnight; percent of plate control window, DMSO zero | GFP/RFP ratio change, % at 20 µM | hit rate 0.061% among 360,000 | AID 651647;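 active = GFP/RFP ratio change of at least 30% with cell ATP level not reduced by more than half and red fluorescence within 50% of control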; note: strong numbers were not always called active
#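 Assay system: RFP-PRO-GFP reporter HT1080 cells; read-out basis: GFP/RFP fluorescence ratio; benchmarks: DMSO wells and RFP-L50D-GFP cells; doses: 20 µM single dose, 1% DMSO; schedule: overnight cell settling, then overnight compound exposure, 37 °C, 5% CO2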
# eIF4H inh retest: second read-out of eIF4H inh, no call of its own (marks repeat the call); inhibition, %; compound at 20 µM; confirmation average;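 mean of two retest wells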
# PABP FP inh retest: recorded beside PABP FP inh, whose call it bears; inhibition, %; compound at 20 µM; confirmation repeats;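 mean of two retest wells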
# MT1-MMP act inh RFP: second read-out of MT1-MMP act inh, no call of its own (marks repeat the call); RFP signal change, %; measured here: RFP expression control read;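 0 = vehicle wells; hits needed this value within 50% of zero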
# Numbers without * were called inactive; i = inactive; ? = inconclusive; · = no result given.
SMILES,PABP FP inh,eIF4H inh,HIV Env fusion,CSC inhib,UUG fidelity,Rce1 inh,MT1-MMP act inh,MT1-MMP act inh RFP,others
CCCC(=O)NCCc1nc2ccccc2n1C,0,0,53,-11,-10,i,-2,-8,
Cc1cc(C)nc(SCC(=O)Nc2ccc(N3CCOCC3)cc2)n1,16,2,-16,2,7,i,0,-3,
CS/C(=C\[N+](=O)[O-])Nc1ccccc1,-1,1,·,-17,-8,i,-2,-1,
C[C@H](CO)N1C[C@H](C)[C@@H](CN(C)S(=O)(=O)c2ccccc2)Oc2ccc(NS(=O)(=O)c3ccccc3)cc2C1=O,·,·,-62,·,-9,·,6,6,
C=C(C)CSc1nncn1/N=C/c1ccc(OC)cc1,-3,6,-130,-4,-3,i,·,·,
O=C(Nc1nccs1)c1ccc(NC(=O)C2CC=CCC2C(=O)O)cc1 (stereo not drawn),3,9,-26,-9,·,i,-2,4,
CCCn1c(/C=C/c2ccco2)nc2ccccc21,7,65,-6,8,·,i,-18,6,eIF4H inh retest=26;PABP FP inh retest=42
COc1ccccc1-c1nnc(SCC(=O)NC2CCCCC2)n1C,-5,-10,8,·,-14,i,3,3,
Cc1ccc(C(C(=O)NC2CCCCC2)N(C(=O)c2csnn2)C2CC2)cc1 (stereo not drawn),-1,5,-8,-3,2,i,0,6,
COc1cccc(NC(=O)c2ccc(S(=O)(=O)N(C)C)cc2)c1,9,-4,29,-4,·,i,-1,0,
C#CCOCCOCCOCCNc1nc(N2CCN(C(=O)[C@H](Cc3ccc(O)cc3)n3cc([C@@H](N)C(C)CC)nn3)CC2)nc(N2CCN(C(=O)[C@H](CCCCN)n3cc([C@@H](N)CO)nn3)CC2)n1 (stereo partly drawn),32,23,·,-9,25,i,0,2,
Cc1ccc(S(=O)(=O)N2[C@@H](c3ccccc3)C(C(=O)O)=CC[C@H]2c2cccs2)cc1,·,·,12,-8,12,·,-4,3,
COc1cc2ncnc(NCc3ccc(C)cc3)c2cc1OC,6,5,·,73,·,i,0,-3,
CC(=O)c1ccc(NC(=O)c2cc(C)nc3ccccc23)cc1,-2,4,-8,3,-8,i,-3,-1,
O=C(NCCCN1CCOCC1)c1ccc(N2CCOCC2)c([N+](=O)[O-])c1,7,2,-9,-15,-3,i,0,4,
Cc1nnsc1C(=O)Nc1cccc(Cl)c1C,4,-2,-2,5,-4,i,6,3,
COc1ccc(C)cc1NC(=O)C(NC(=O)c1cc(OC)c(OC)c(OC)c1)C(C)C (stereo not drawn),1.6*,91*,-17,-14,·,i,3,4,eIF4H inh retest=95*;PABP FP inh retest=50*
Cn1c2ccc(F)cc2c2ncn(CC3CCCO3)c(=O)c21 (stereo not drawn),0,-15,-22,4,-21,i,0,1,
CCOC(=O)c1ccc(NC(=O)CC2C(=O)N(c3cccc(OC)c3)C(=O)N2CCOC)cc1 (stereo not drawn),0,-9,·,-10,0,i,-6,-2,
N#C/C(=C\c1ccc(-c2ccccc2[N+](=O)[O-])o1)C(N)=O,26,55,37,-17,·,i,-4,-4,eIF4H inh retest=33;PABP FP inh retest=31
CCc1cc2c(cc3c(=O)n(CC(=O)NCCCN(CC)CC)nc(CC)n32)s1,-6,-8,-5,26,·,i,1,-1,
Cc1ccc(-c2noc(CSc3nnc(Cc4ccccc4)n3-c3ccc(Cl)cc3)n2)cc1,-11,6,·,58,1,i,-4,-3,
Cc1c(C(=O)/C=C/c2cccs2)oc2ccc(F)cc12,-14,-4,·,-18,-13,i,-10,-9,
O=C(CCCc1nc(-c2ccccc2Cl)no1)NC1CCCC1,7,27,66*,·,-43,i,1,0,
O=C(OC1CCN(c2ncc(C(F)(F)F)cc2Cl)CC1)c1ccccc1,-11,3,-5,-1,-9,i,8,3,
CCOC(=O)c1c(CN2CCN(c3ccccc3)CC2)oc2cc(Br)c(O)cc12,4,-10,7,49,-8,i,-2,1,
Cc1ccc(C(=O)N2CCN(S(=O)(=O)c3cc(Br)ccc3Br)CC2)o1,7,-4,0,-11,0,i,12,-1,
CC1CN(C(NC(=O)c2ccccc2)C(Cl)(Cl)Cl)CC(C)O1 (stereo not drawn),10,3,4,·,·,·,-1,0,
CC(=O)Nc1ccc(S(=O)(=O)N2CCC(NC(=O)C(Cc3ccc(C)cc3)NC(C)=O)CC2)cc1 (stereo not drawn),17,-11,-7,·,-5,i,3,2,
CCOC(=O)c1c(/N=C/N(C)C)sc(C(=O)OC)c1C,-9,6,·,-16,-10,i,-1,2,
CCOC(=O)N1CCN(Cc2nc3cc(NC(=O)c4ccco4)ccc3n2CC)CC1,-7,-9,12,2,-7,i,-2,-2,
COC(=O)CNC(=O)CSc1nc2sccc2c(=O)n1-c1ccccc1,1,-9,-8,-6,6,i,-3,1,
O=C(c1ccco1)c1cn(CC(=O)N2CCCC2)c2ccccc12,7,13,-9,3,·,i,3,4,
CC(=O)c1ccc(NC(=O)COC(=O)c2ccccc2Nc2ccccc2)cc1,14,-6,·,-3,-21,i,4,2,
COCc1cc(=O)n2[nH]c(SC)nc2n1,-7,0,-5,2,·,i,0,-3,
O=C(NCc1cccc2ccsc12)c1cccs1,·,·,-28,10,-8,·,-1,3,
O=C(O)C1CC1(c1ccccc1)c1ccccc1 (stereo not drawn),-2,0,-75,9,-29,i,-3,1,
CN(Cc1ccc(Cl)cc1)C(=O)COC(=O)c1ccc(-c2ccc(O)cc2)cc1,·,·,-1,38,-3,·,2,-3,
COc1ccccc1N1CC(C(=O)NC2CCCCCC2)CC1=O (stereo not drawn),·,·,-4,-18,5,·,-3,-3,
C/C=C/C(=O)N1CC2(CC(c3cccc(NC(=O)CC(c4ccccc4)c4ccccc4)c3)=NO2)C[C@H]1C(N)=O (stereo partly drawn),-3,5,4,-8,1,i,2,1,
CCC1=C(OC(=O)N(CC)CC)N2C(=O)OC(=NCCOC)[C@]2(Cc2ccccc2)[C@H]2C1=CC[C@H]1C(=O)NC(=O)[C@H]12,8,2,-31,-6,-3,i,-5,-2,
CNC(=O)C(=O)NCC1OCCN1S(=O)(=O)c1ccc2c(c1)OCCO2 (stereo not drawn),3,-10,-1,-12,·,·,1,1,
O=c1c2cnn(-c3ccccc3)c2ncn1Cc1cccc(Cl)c1,3,-11,4,5,-9,·,1,-12,
CC(NC(=O)C(=O)NCCN1CCN(C(=O)c2ccccc2Br)CC1)c1ccccc1 (stereo not drawn),2,-4,-1,-1,-10,i,-1,0,
Cc1ccc(C(=O)N(CCN(C)C)CC2CCCN(Cc3ccccc3F)C2)cc1C (stereo not drawn),-3,7,8,-10,1,i,2,1,
Cc1ccc(C(=O)COC(=O)c2cccc(O)c2)s1,·,·,-36,·,-75,·,4,2,
COc1cc(C(=O)Nc2nc3ccccc3[nH]2)ccc1OC(F)F,0,6,-136,14,·,i,9,-5,
CSc1nc(C)c(Oc2ccccc2)c(=O)n1C,-4,-2,-20,-9,0,i,-3,2,
CC(C)(C)c1cc(Cl)c(O)c(NC(=S)NC(=O)c2cccnc2)c1,?,11,10,26,·,i,-12,-8,
CCn1c(O)c(N=NC(=O)CNc2cccc(C)c2)c2ccccc21,6,-6,0,-20,·,i,2,3,
COc1cc(C)c(Cl)cc1S(=O)(=O)NCc1ccncc1,1,-3,·,·,·,i,·,·,
CCOCCCn1c(=S)[nH]c2cc(C(=O)NCCN(CC)CC)ccc2c1=O,-3,0,-23,-4,4,i,3,11,
COc1ccc(N2CCN(C(=O)CCS(=O)(=O)c3ccc(OC)cc3)CC2)cc1,-7,-7,-47,-8,·,i,5,5,
CC(=O)Nc1cc2c(c(Cl)c1Cl)-c1ccccc1C2=O,·,·,20,·,-12,·,-1,0,
O=C(c1ccccc1)N1CCN(CC(O)COC2CCCCC2)CC1 (stereo not drawn),-6,-4,-22,-9,·,i,2,4,
CC1CCN(c2ncnc3c2cnn3-c2ccccc2)CC1,7,0,-82,50,-56,i,-3,-6,
Cc1cc(OCC(=O)OC(C)C(=O)NC2CC2)c(C(C)C)cc1Cl (stereo not drawn),·,·,16,·,-10,·,-3,5,
CCCc1nc(N2CCOCC2)c(C#N)c2c1CCCC2,-11,-2,-8,·,6,i,·,·,
C/C=C/C(=O)N[C@@H]1c2ccccc2CC[C@@H]1OCc1ccccc1,·,·,-3,·,-1,·,-3,-6,
CCC(Oc1ccccc1OC)C(=O)Nc1ccc2c(c1)n(C)c(=O)n2C (stereo not drawn),1,-9,-5,-7,0,i,7,6,
# Other compounds follow:
SMILES,PABP FP inh,eIF4H inh,HIV Env fusion,CSC inhib,UUG fidelity,Rce1 inh,MT1-MMP act inh,MT1-MMP act inh RFP,others
COc1ccccc1NC(=O)Nc1nc(C(N)CC(C)C)cs1 (stereo not drawn),·,·,-33,·,-9,·,0,2,
C#CCOc1ccc(CNC[C@H]2O[C@@H](n3ccc(=O)[nH]c3=O)[C@H](O)[C@@H]2O)cc1,·,·,15,·,1,·,3,5,
O=c1c2cc(Cl)ccc2oc2nc3n(c(=O)c12)CCCS3,20,-4,·,-1,-10,i,1,-7,
Cc1nnc(SCC(=O)N2CCN(C(=O)c3ccco3)CC2)n1-c1ccccc1,-2,7,-3,-10,·,i,3,5,
O=C(Cc1ccc(F)cc1)Nc1cccc2cccnc12,10,-11,19,48,-16,i,2,2,
Cc1n[nH]c(=S)n1/N=C/c1ccc(-c2ccccc2[N+](=O)[O-])o1,31,10,·,1,-28,i,-6,-2,
CCC1CCCCN1CCCNC(=O)C1CCCN(c2nn3c(=O)cc(C)nc3s2)C1 (stereo not drawn),14,5,0,10,·,i,-2,2,
Cc1c(CC(=O)N2CCN(C(=O)C3COc4ccccc4O3)CC2)c(=O)oc2c(C)c(O)ccc12 (stereo not drawn),5,-2,4,-10,-19,i,0,1,
CC(C)Cc1cc(C(=O)Nc2cc(Cl)ccc2Cl)no1,-17,1,·,-22,-33,i,-8,2,
COc1ccc(NC(=O)COC(=O)C2CC2)c(OC)c1,·,·,·,4,-3,·,-1,5,
CCN(CC)CCCNC(=O)Cn1cnc2ccc(S(=O)(=O)N3CCC(C)CC3)cc2c1=O,-9,-5,-32,2,·,i,-2,0,
CC(O)(C#CCN1CCCCCC1)c1ccccc1 (stereo not drawn),8,-9,9,-5,·,i,-3,6,
CCOC(=O)c1ccccc1NC(=O)N1CCn2c(C)ccc2C1CC (stereo not drawn),116*,?,·,-7,12,i,-24,7,PABP FP inh retest=94*
COC(=O)c1ccc(COC(=O)CNC(=O)c2ccc(OC)cc2)cc1,·,·,·,1,-10,·,-1,-1,
CN(C(=O)c1ccc(NC(=O)Cc2ccc(NC(=O)C3CCN(C(=O)C4CCC4)CC3)cc2)cc1)C1CC1,·,·,-104,-1,2,·,8,3,
CC(=O)c1c(C)[nH]c(C(=O)NC(C)c2ccccc2)c1C (stereo not drawn),6,8,-8,·,-14,i,0,-7,
Cc1nnc(CN(C)C(=O)c2cc(COc3ccc(C)c(C)c3)on2)o1,7,-19,-5,16,-7,i,-2,7,
Cc1noc(C)c1COc1ccccc1C(=O)NNC(=O)C(C)Oc1ccccc1F (stereo not drawn),·,·,-6,-6,-16,i,1,2,
Cc1cc(C)c(S(=O)(=O)NC(CC(=O)O)c2cccc([N+](=O)[O-])c2)c(C)c1 (stereo not drawn),-8,0,3,5,-8,i,1,-1,

# This is a subset (hit frequency here may not be typical).
